Screening data from PubChem BioAssay.
Sa RN4220 lethal: kills Staphylococcus aureus RN4220; S. aureus RN4220 growth, OD600, 16 h; inhibition, % (no concentration beside the values); hit rate 0.33% among 330,000; AID 1259311;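 active = z-score of -3 or lower and OD600 up to 0.18 on both plates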;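 also: plate controls were untreated cells for no effect and reference antibiotic for full effect; stock transfer was 100 nL into about 80 µL; one replicate is shown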
Mtb hypoxia rep: reduces hypoxia-regulated biosensor signal in M. tuberculosis; M. tuberculosis hypoxia-regulated fluorescent reporter, fluorescence; fluorescence inhibition, % (no concentration beside the values); hit rate 0.1% among 300,000; AID 1159583;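 active = 35 to 45% if threefold the growth effect, above 45% if 1.5-fold the growth effect; inactive = the rest, general growth blockers included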;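 also: wells of about 50 µL received 100 nL stock; 0% = vehicle wells and 100% = reference inhibitor wells; whole bacteria with a GFP reporter of the hypoxia response; strong numbers were not always called active; many hits fall short of the cut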
BJeLR lethal: BJeLR cell viability loss. BJeLR (HRASV12) viability, CellTiter-Glo ATP luminescence, 48 h; reference of the scale not given here. inhibition, % (concentration not given with the values). hit rate 0.17% among 300,000;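 active = replicate mean above 50%; inconclusive = above 50% but judged a plate artefact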;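 also: 50 nL library stock added to about 25 µL; numbers are from one replicate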
PrP UTR inh: suppresses PrP 5' UTR mRNA reporter expression; cell-based PrP 5' UTR mRNA reporter, plate reader; inhibition, % (no concentration beside the values); hit rate 0.35% among 340,000; AID 488862;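 active = every replicate at 50% or more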;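 also: 0 = median of the neutral control wells; tested in H4 reporter cells; numbers are from one replicate; inactives centre near -14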
Autofluor counter: compound fluorescence in toxin protease inhibitor counterscreen | compound autofluorescence counterscreen, microsphere flow cytometry; active compounds read high | fluorescence intensity (no concentration beside the values) | AID 624483 | hit rate 3.1% among 360,000;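 active = at least 3 SD above the mean of all compounds, about 16000 in these data; inconclusive = too few beads counted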;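 also: 100 nL of 1 mM stock went into each well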
Sa ugtP lethal: kills S. aureus RN4220 lacking UgtP; AID 1259309; growth inhibition, % (no concentration beside the values); S. aureus RN4220 ugtP deletion, OD600 growth, 16 h; some inactives read as strong as hits; hit rate 0.54% among 330,000;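 active = z-score under -3 and OD600 up to 0.15 on both plates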;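 also: plate controls were untreated wells for no effect and antibiotic for full effect; wells of about 80 µL received 100 nL stock; the first replicate is given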
Mtb hypoxia rep growth: recorded beside Mtb hypoxia rep, whose call it bears; growth inhibition, %; measured here: M. tuberculosis growth (absorbance);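 0% = vehicle and 100% = reference antibiotic; read after six days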
Active calls of the source: *; ? = inconclusive; . = not tested or not shown. Compounds as they come. About 4% of those tested had a hit in this group.

SMILES | Sa RN4220 lethal | Mtb hypoxia rep | Mtb hypoxia rep growth | BJeLR lethal | PrP UTR inh | Autofluor counter | Sa ugtP lethal
CN(C)c1ccc(CNn2cnnc2SCc2ccccc2F)cc1 | 3.8 | 6 | 8 | 0 | -11 | 19034* | 5
COc1ccnc2c1c(=O)n(Cc1ccc(F)cc1)c(=O)n2C | 1.7 | -6 | 6 | -15 | 2 | 5718 | 1
O=C(Nc1cc(C(F)(F)F)ccc1Cl)c1cccnc1 | . | . | . | -5 | 0 | 4035 | .
CCCCN(C(=O)c1cccc(S(=O)(=O)N2CCN(Cc3ccccc3)CC2)c1)c1ccccc1 | 8.8 | 6 | -5 | 5 | -23 | 6026 | 5
Cc1ccc(C)n1-c1ccc(C(=O)N2CCOCC2)cc1 | 1.0 | -4 | 2 | -6 | 6 | 22385* | -8
Cc1ccc(CNS(=O)(=O)NCc2cccs2)cc1 | 0.7 | 6 | 5 | 2 | -21 | 3224 | -1
O=C(CCN1CCCCO1)N1CCCC(Nc2ccc(F)c(F)c2)C1 (stereo not given) | -0.1 | 11 | 3 | 11 | -16 | 5986 | 5
COc1ccc2c(c1)cc(C(=O)N/N=C/c1c(O)c(C(=O)O)cc3ccccc13)n2C | . | . | . | 7 | -20 | 3911 | .
O=C(NCCCNC(=O)c1ccc(-c2cc(Cl)ccc2Cl)o1)c1cnccn1 | 0.7 | -1 | 1 | 6 | -11 | 5803 | -3
O=C(Cc1ccc(-c2ccccc2)cc1)NNC(=S)NCc1ccco1 | 6.5 | 6 | 11 | 6 | -16 | 3320 | -3
c1ccc(CC2CCN(C3=Nc4cccc5cccc3c45)CC2)cc1 | -5.1 | 0 | 5 | 5 | -43 | 4214 | -11
Cc1ccc(Cl)cc1N1CCN(CCN)CC1 | -1.7 | . | . | 5 | 10 | 2124 | -5
CC(C)(C)NC(=O)NC(=O)COC(=O)CNC(=O)c1cc(Cl)cc([N+](=O)[O-])c1 | 3.3 | -1 | 6 | -5 | -15 | 3994 | 4
O=C(N/N=C/c1cc2c(cc1[N+](=O)[O-])OCO2)c1cccnc1 | . | . | . | -9 | -17 | 4373 | .
O=C(Nc1nc2ccc(F)cc2s1)Oc1ccccc1 | 4.6 | -11 | 1 | -1 | -26 | 3863 | 2
NC(=S)Nc1ccc(Cl)cc1Cl | 2.2 | 10 | 0 | -4 | 6 | 4354 | 8
CN1C(C)(C)CC(=NO)CC1(C)C | 3.0 | 17 | 7 | . | -22 | 2931 | 7
CC1CCCCN1C(=O)COC(=O)c1ccc(=O)n(Cc2ccccc2)n1 (stereo not given) | -1.5 | 7 | 3 | -1 | -19 | 6431 | 7
CCOC(=O)N1CCC(NC(=O)CCN2C(=O)C3C4C=CC(C4)C3C2=O)CC1 (stereo not given) | 6.5 | . | . | . | -12 | 2630 | -7
Cc1ccn2c(C(=O)NN=C3CCN(C)CC3)c(C)nc2c1 | 3.1 | 1 | 5 | -3 | -9 | 4839 | -2
Cc1ccc(NC(=O)Nn2cnnc2)c(C)c1 | 0.5 | -3 | -10 | 4 | 5 | 4068 | 6
CCOC(=O)c1cc(C)n(-c2ccccc2)c1C | 4.2 | 9 | -2 | -2 | -37 | 4123 | 12
Cc1ccc(C(C)NC(=O)C2CCCC2)c(C)c1 (stereo not given) | 1.5 | 0 | 10 | -6 | -8 | 3211 | 4
CCOC(=O)c1ccc(Nc2ncnc3nc[nH]c23)cc1 | 3.6 | 7 | 11 | 0 | -48 | 3444 | 1
CCCOc1ccc(/C=N/NC(=O)CN2CCCCC2)cc1OCC | . | . | . | -4 | -11 | 3228 | .

Entries of single compounds from above. Order of values: Sa RN4220 lethal, Mtb hypoxia rep, Mtb hypoxia rep growth, BJeLR lethal, PrP UTR inh, Autofluor counter, Sa ugtP lethal
Results for Cc1ccn2c(C(=O)NN=C3CCN(C)CC3)c(C)nc2c1 : 3.1, 1, 5, -3, -9, 4839, -2
Results for NC(=S)Nc1ccc(Cl)cc1Cl : 2.2, 10, 0, -4, 6, 4354, 8
Results for CC1CCCCN1C(=O)COC(=O)c1ccc(=O)n(Cc2ccccc2)n1 (stereo not given) : -1.5, 7, 3, -1, -19, 6431, 7
Results for Cc1ccc(CNS(=O)(=O)NCc2cccs2)cc1 : 0.7, 6, 5, 2, -21, 3224, -1
Results for Cc1ccc(NC(=O)Nn2cnnc2)c(C)c1 : 0.5, -3, -10, 4, 5, 4068, 6

Other structures.
SMILES | Sa RN4220 lethal | Mtb hypoxia rep | Mtb hypoxia rep growth | BJeLR lethal | PrP UTR inh | Autofluor counter | Sa ugtP lethal
COc1ccc(C=NNC(=O)c2ccc(Cl)cc2Cl)cc1COC(C)=O | -1.8 | 4 | 8 | . | . | . | 1
CC(=O)c1ccc(OCC(=O)OCC(=O)NCc2ccco2)cc1 | 0.6 | 0 | 2 | . | -6 | 3714 | 0
Cc1nc(Nc2ccccc2)sc1C(=O)Nc1ccccc1 | -3.9 | 17 | 11 | 5 | -47 | 5920 | -6
CCOc1cc(N2CCOCC2)c(OCC)cc1NC(=O)CN1C(=O)NC2(CCc3ccccc32)C1=O (stereo not given) | 1.5 | . | . | 1 | -6 | 3979 | 3
CN(C)CCOC(=O)C1(c2ccccc2)CCCC1 | -13 | 7 | -2 | 10 | -1 | 3154 | 0
COc1ccc(-c2nc(-c3ccc(NC(=O)c4ccncc4)cc3)no2)cc1OC | 4.3 | -2 | 10 | 5 | -20 | 5504 | 8
CCOC(=O)c1ccc(S(=O)(=O)N2CCN(CC(=O)NC(=O)NC(C)(C)C)CC2)cc1 | 2.3 | 9 | 4 | -2 | -28 | ? | 9
CC(=O)NCCc1ccc(S(=O)(=O)Nc2ccc(C)c(S(=O)(=O)N3CCOCC3)c2)cc1 | -0.5 | -6 | -18 | 0 | -3 | 4132 | 1
Cc1ccc(C(=O)OCC(=O)NC2CCCC(C)C2C)cc1S(=O)(=O)N1CCCCC1 (stereo not given) | 2.3 | 24* | 61* | . | -18 | 8861 | -4
Cc1cc(C)cc(N2C(=O)NC(=O)/C(=C\c3cccn3-c3ccc(Cl)cc3)C2=O)c1 | . | . | . | 4 | -3 | 2496 | .
O=C(NNC(=O)c1ccco1)c1ccc(NS(=O)(=O)c2cccs2)cc1 | 1.2 | 5 | 7 | -2 | 2 | 5621 | 12
COc1cc(S(=O)(=O)N2CCCC3(CCCCC3)C2)ccc1-n1cnnn1 | 4.6 | 1 | -8 | -4 | -21 | 10230 | -12
COc1ccc(C(=O)CC(=O)C(=O)Nc2cc(OC)ccc2OC)cc1 | 4.2 | 10 | 4 | 4 | -5 | 3746 | -2
O=C(COC(=O)C1COc2ccccc2O1)Nc1ccc(Cl)cc1 (stereo not given) | 4.3 | 8 | -1 | . | -13 | 3545 | 3
COC(=O)C1CSC(C)(C)C(=O)N1 (stereo not given) | 5.1 | 10 | 5 | -4 | -6 | 4443 | 7
Cc1nc(S(=O)(=O)N2CCN(C3c4ccccc4-c4ccccc43)CC2)cn1C | 5.2 | 9 | -3 | -9 | . | 6423 | 2
C=CCOc1c2ccc(C(=O)NCc3ccc(OC)cc3)cc2nn1C | 3.5 | 9 | 10 | -6 | -34 | 3893 | -10
CN1C(=O)C(C2c3ccccc3C(=O)N2Cc2ccc([N+](=O)[O-])cc2)C(=O)N(C)C1=O (stereo not given) | 2.5 | 1 | 5 | 11 | -12 | 8519 | -3
COc1ccc(OC)c(NC(=O)COC(=O)COc2ccc(Nc3ccccc3)cc2)c1 | -0.3 | 2 | -2 | . | -9 | 3373 | 13
O=C(Nc1cccnc1)c1ccc(NS(=O)(=O)c2cccc([N+](=O)[O-])c2)cc1 | 1.8 | 3 | 4 | 1 | -2 | 4990 | 0
COc1cc(C(c2c(C(=O)O)[nH]c3ccccc23)c2c(C(=O)O)[nH]c3ccccc23)ccc1OCc1ccccc1 | 28 | -1 | 2 | 4 | -19 | 3173 | 3
O=C(Nc1ccccc1N1CCOCC1)c1cc2ccccc2o1 | 2.0 | 9 | 2 | 1 | -14 | 4014 | 4
COc1ccc(C(C(=O)NCCC(C)C)N(CCCO)C(=O)c2snc(C(N)=O)c2N)cc1OC (stereo not given) | 6.8 | 17 | 11 | 1 | -26 | 3526 | 12
O=C(NN=Cc1cccnc1)c1ccc(Cl)s1 | 2.2 | 19 | 10 | . | . | . | 14
O=c1c2ccccc2nc(/C=C/c2c[nH]c3ccccc23)n1CCO | 8.0 | 7 | 1 | 6 | -31 | 4742 | -5
(listing goes on)
SMILES | Sa RN4220 lethal | Mtb hypoxia rep | Mtb hypoxia rep growth | BJeLR lethal | PrP UTR inh | Autofluor counter | Sa ugtP lethal
CC1CCCCC1=NNC(=S)Nc1ccccc1 (stereo not given) | 7.4 | 2 | -1 | . | . | . | 4
COc1ccc(-c2csc(NC(=O)CN3C(=O)CCC3=O)n2)cc1OC | -5.6 | -4 | 0 | -3 | -40 | 2578 | -2
O=C(Cc1ccc(Br)cc1)N1CCN(c2ccccn2)CC1 | 2.4 | 0 | 0 | 6 | -10 | 2528 | 16
CC(=O)c1sc(NC(=O)COc2c(C)cc(Cl)cc2C)nc1C | -0.7 | 2 | 19 | -2 | . | . | -4
CC(C(=O)Nc1ccc(Br)cc1C(=O)c1ccccc1)N1CCOCC1 (stereo not given) | 0.5 | . | . | -3 | -38 | 2802 | 3
CCOC(=O)N1CCC(N2C(=O)c3ccc(C(=O)Nc4ccc(F)cc4F)cc3C2=O)CC1 | -16 | 4 | 16 | 5 | -6 | 6657 | 0
CCOC(=O)c1cc(=O)n2c(nc3ccccc32)[nH]1 | 3.8 | 7 | 9 | 4 | -21 | 3603 | 4
CN1CCNC(=O)C1CC(=O)NCC1(c2ccccc2)CCCCC1 (stereo not given) | -0.5 | 8 | 1 | -3 | -12 | 2133 | 1
O=C(N/N=C/c1ccncc1)c1ccc(NS(=O)(=O)c2cccs2)cc1 | . | . | . | -1 | -35 | 3793 | .
Cc1[nH]c2ccccc2c1C(=O)CN1CC=C(c2ccccc2)CC1 | -0.5 | -3 | 7 | -1 | -9 | 2771 | -21
COCC1CCN(C(=O)c2cc(COc3cncc(Cl)c3)on2)C1 (stereo not given) | 6.5 | 2 | -1 | 3 | -9 | 4606 | 13
CC(=O)c1ccc(NC(=O)C(C)N(C)CC(=O)Nc2ccc(Cl)cc2)cc1 (stereo not given) | 5.5 | 7 | 8 | 4 | 17 | 4316 | 4
Cc1ccc(CNS(=O)(=O)c2c(C)[nH]c(C)c2C(=O)N2CCCCC2)o1 | 3.1 | 16 | 3 | -3 | -14 | 5686 | -4
C[C@]12c3[nH]c4cc(-c5ccco5)ccc4c3CCN1C(=O)[C@@H](CC(=O)NCCCn1ccnc1)C[C@@H]2C(=O)N1CCCCC1 | -4.2 | -9 | 12 | . | -27 | 4163 | 1
CCOc1ccc2nc(NC(=O)CSc3nnc(-c4ccncc4)n3CC3CCCO3)sc2c1 (stereo not given) | 3.1 | 8 | 12 | -7 | -17 | 8857 | -11
C=CCN(CC=C)C(=O)c1ccncc1 | 3.7 | 4 | 11 | 0 | -5 | 3792 | 1
O=C(CN1C(=O)c2ccccc2C1=O)Nc1ccc(Cl)cn1 | 7.1 | -7 | 2 | 2 | -9 | 3663 | 14
Cc1ccc(-n2c(-c3ccco3)nc3c(cnn3-c3ccccc3C)c2=O)cc1 | 2.4 | -3 | 6 | -3 | -11 | 5676 | -5
COc1cccc(/C=C2\NC(=O)NC2=O)c1O | -0.2 | -1 | -1 | 13 | -37 | 3568 | 1
CC(C)CNC(=O)c1cccc(NC(=O)C(C)Oc2ccccc2)c1 (stereo not given) | 2.3 | 14 | 0 | 1 | -2 | 4721 | -8
CCOC(=O)c1c(-c2ccc(OC)cc2)oc2ccc(OC(=O)N(C)C)cc12 | 19 | 2 | 14 | -3 | -28 | 3696 | -4
COc1ccc(C(C)=O)cc1CSc1ccc(S(=O)(=O)N2CCOCC2)cn1 | 3.4 | 15 | 10 | . | 0 | 4056 | 2
Nc1ccc(C(=O)OCC(=O)Nc2cccc(S(=O)(=O)NC3=NCCCCC3)c2)cc1[N+](=O)[O-] | 4.0 | -3 | -3 | . | -14 | 2894 | 3
Cc1cc(OCC(=O)OCC(=O)N2c3ccccc3NC(=O)C2(C)C)ccc1Cl | 12 | 11 | 3 | . | -10 | 7891 | 4
CCc1nnc(NC(=O)/C=C/c2cccs2)s1 | -7.2 | -1 | 3 | -6 | -54 | 4144 | 3
O=C(CSc1nnc(-c2ccc(O)cc2)o1)Nc1ccc2c(c1)OCCO2 | -9.5 | 11 | 9 | -1 | -61 | 3433 | -5
